High-throughput results as filed in PubChem BioAssay.
CSC inhib: cancer stem cell inhibition | cancer stem cell-like cells viability, luminescence | inhibition, % at 7.5 µM | 300,000 tested, 1.1% active | AID 2717;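 active = mean at 75% or more and at least half the replicates too; tested in HMLE shEcad cells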;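 also: 0% = median of negative and 100% = median of positive control wells; the first replicate is given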
eIF4H inh: inhibitors of RNA binding by human eIF4H. AID 2012. 290,000 tested, 0.94% active. inhibition, % at 35 µM. Q15056. eIF4H fluorescence polarization binding assay;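 active = 50% or more with normal probe brightness, or confirmed in later tests; about a fifth of its hits are not listed in these tables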;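 also: calls also rest on retests at 20 µM and on dose response follow-up; 0% = protein and probe with vehicle and 100% = probe without protein; strong numbers were not always called active; many hits fall short of the cut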
PABP FP inh: blocks human PABP binding to poly(A) RNA. P11940. fluorescence polarization. inhibition, % at 35 µM. 290,000 tested, 1% active;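 active = 50% or more with normal probe brightness, or confirmed in later tests; about a fifth of its hits are not listed in these tables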;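 also: calls also rest on retests at 20 µM and on dose response follow-up; controls were probe without protein and protein plus probe with vehicle; some compounds called inactive have numbers as strong as hits; many hits fall short of the cut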
MT1-MMP act inh: MT1-MMP (human) activation inhibition; 360,000 tested, 0.061% active; HT1080 RFP-PRO-GFP cells, GFP/RFP ratio fluorescence, overnight; percent of plate control window, DMSO zero; GFP/RFP ratio change, % at 20 µM;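 active = GFP/RFP ratio change of at least 30% with cell ATP level not reduced by more than half and red fluorescence within 50% of control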; also: strong numbers were not always called active
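Test system: HT1080 RFP-PRO-GFP cells; Benchmarks: DMSO and RFP-L50D-GFP cell wells; Timing: cells overnight before dosing, compound overnight, 37 °C, 5% CO2; Compound: one 20 µM compound dose with 1% DMSO; Read-out: GFP/RFP fluorescence ratio.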
Env fusion inh: blocks HIV Env-driven cell-cell fusion | inhibition, % at 12.3 µM | AID 651610 | 360,000 tested, 1.1% active | HeLa-JRFL Env/CEM21 cell fusion, luciferase;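 active = mean replicate inhibition score of at least 50 and every replicate individually at or above 50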;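 also: 0% = plate neutral controls and 100% = maraviroc near 300 nM; one replicate is shown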
Rce1 inh: blocks yeast Ras-converting enzyme | yeast membranes, quenched prenylated peptide cleavage fluorescence | calls only | 290,000 tested, 0.27% active | AID 2563;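 active = fall in fluorescence gain of 50% or more versus controls, with final raw signal at or below 3038400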;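 also: plate controls were neutral control wells for no effect and wells lacking membranes for full effect; tested at 10 µM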
Target sequence (Q03530 whole entry, looked up): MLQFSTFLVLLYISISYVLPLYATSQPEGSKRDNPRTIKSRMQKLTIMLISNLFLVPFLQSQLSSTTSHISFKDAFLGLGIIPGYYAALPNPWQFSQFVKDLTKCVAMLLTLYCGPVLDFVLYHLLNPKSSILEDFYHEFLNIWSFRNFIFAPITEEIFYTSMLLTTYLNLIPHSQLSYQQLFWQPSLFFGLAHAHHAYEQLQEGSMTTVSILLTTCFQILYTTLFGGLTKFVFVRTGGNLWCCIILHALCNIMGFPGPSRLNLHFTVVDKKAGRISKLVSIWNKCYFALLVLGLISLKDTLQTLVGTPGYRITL
UUG fidelity: modulators of start codon recognition fidelity in yeast; S. cerevisiae UUG-firefly luciferase reporter, luminescence/redox ratio; activity score, % at 18.7 µM; AID 602363; 350,000 tested, 0.13% active;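 active = replicate mean at a twofold rise or more, about +100% in these data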;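 also: firefly luciferase made from a UUG start codon reports start codon fidelity; reporter light over untreated wells divided by growth signal over untreated wells; some hits fall short of that in this replicate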
eIF4H inh retest: further read-out of eIF4H inh, marked with its call; inhibition, %; compound at 20 µM; confirmation average;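 mean of two retest wells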
PABP FP inh retest: second read-out of PABP FP inh, no call of its own (marks repeat the call); inhibition, %; compound at 20 µM; confirmation repeats;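 mean of two retest wells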
MT1-MMP act inh RFP: second read-out of MT1-MMP act inh, no call of its own (marks repeat the call); RFP signal change, %; measured here: RFP expression control read;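 0 = vehicle wells; hits needed this value within 50% of zero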
* = called active by the depositor; i = inactive; · = not tested or not shown.

SMILES	CSC inhib	eIF4H inh	PABP FP inh	MT1-MMP act inh	MT1-MMP act inh RFP	Env fusion inh	Rce1 inh	UUG fidelity	others
O=C(NCc1ccc(Cl)cc1)c1ccc(OCC2CCCO2)cc1 (stereo unspecified)	-4	-2	5	10	-2	·	i	-5
Cc1nc2nc(-c3ccco3)[nH]n2c(=O)c1Cc1ccccc1	-15	-3	26	1	6	·	i	10
CCOc1ccc2c(c1)c(N=NC(N)=S)c(O)n2C	-8	4	2	13	3	-5	i	-9
Cc1cccc(Nc2cc(=O)[nH]c(=O)[nH]2)c1	6	-2	8	4	6	·	i	·
CCOc1ccc(CCN2C(=O)C(=O)N([C@@H](CC(C)C)CN3CCC[C@@H]3CN3C(=O)C(=O)NC[C@@H]3CC(C)C)C[C@@H]2Cc2ccccc2)cc1	·	·	·	0	-1	-98	·	5
CCOc1ccc(NS(=O)(=O)c2cc3c4c(c2)CCN4C(=O)CC3)cc1	0	·	·	0	-4	5	i	-9
CCn1c(=O)n(-c2ccc(Cl)cc2)c(=O)c2c3c(sc21)COC(C)(C)C3	-5	-4	6	2	4	-24	i	-18
CCCCc1nnc(SCCSc2nnc(CCCC)n2N)n1N	-10	5	-4	0	0	-8	i	-25
CCN1C(=O)[C@H]2[C@@H](c3ccc(C)cc3)N3C(=O)N(c4cccc(F)c4)C(=O)[C@@]3(CC)[C@H]2C1=O	14	10	-2	1	5	43	i	-6
Cn1c(=O)c2c(nc(NCCNC(=O)c3ccco3)n2Cc2ccc(Cl)cc2Cl)n(C)c1=O	-6	12	-4	0	-5	·	i	-25
C[C@@H]1CC2OC(=O)[C@@]3(C)C(=O)CC[C@@](C)(C23)[C@@]1(O)CCc1ccoc1 (stereo partly specified)	·	-12	-4	-1	-1	9	i	-13
Oc1ccc(/C=N/N(Cc2ccccc2)c2ccccc2)cc1	·	-11	-6	2	-9	0	i	-10
CCOC(=O)C1CCN(c2c(NCc3ccc(C(=O)Nc4ccc(C)cc4)cc3)c(=O)c2=O)CC1	3	-9	11	-1	1	27	i	-23
Cc1ccc(NC(=O)Cn2c(O)c(N=NC(=O)c3cc([N+](=O)[O-])ccc3O)c3ccccc32)cc1	-14	0	17	·	·	·	i	·
CC(OC(=O)CN1C(=O)NC(C)(C)C1=O)C(=O)c1ccccc1 (stereo unspecified)	-2	5	-1	3	5	·	i	-25
O=C(CSc1nnc(Cc2ccccc2)n1-c1ccccc1)NNC(=O)Cc1ccccc1	30	0	-12	8	6	-26	i	14
COc1ccc(F)cc1S(=O)(=O)N1CC(C)CC(C)C1 (stereo unspecified)	-5	-7	-4	8	0	-51	i	0
COc1ccc(-c2c(O)c(C#N)c(-c3ccccc3)n(-c3ccc(OC)cc3)c2=O)cc1	-14	-3	0	10	7	-37	i	-5
O=P(c1ccccc1)(c1ccccc1)c1ccccc1C(Br)Br	·	·	·	-4	-4	12	·	-3
O=C(Cn1c(=O)n(Cc2ccco2)c(=O)c2ccccc21)NCC1CCCO1 (stereo unspecified)	·	-5	-10	5	6	·	i	-31
Cc1ccc(S(=O)(=O)NC(C)C(=O)N2CCOCCOCCOCCOCC2)cc1 (stereo unspecified)	9	-3	6	4	8	4	·	-15
c1ccc(NC2=NCCN2CC2CCC2)cc1	0	·	·	-1	5	-9	·	-19
CCc1cc2c(SCC(=O)O)ncnc2s1	·	-8	15	-5	1	·	i	·
Cc1cc(C(=O)Nc2ccccc2N2CCCCC2)no1	0	2	-4	-4	-3	12	i	-3
CCOc1ccc2nc(SCC(=O)NCc3ccc4c(c3)OCO4)[nH]c2c1	-13	-4	-8	1	-2	-44	i	-9
CCOC(=O)C1=C(C)N=c2s/c(=C\C(=O)OC)c(=O)n2C1c1ccc(OC)cc1 (stereo unspecified)	-2	-5	-10	1	1	·	i	-9
COc1ccc2nc(SCCN(C)C)[nH]c2c1	4	-10	8	1	3	-4	i	·
COc1ccccc1-c1nc(S(=O)(=O)c2ccccc2)c(N2CCCCC2)o1	28	16	6	-1	-1	-14	i	-9
C[C@H](NC(=O)OCc1ccccc1)C(=O)N[C@@H](Cc1c[nH]c2ccccc12)C(=O)O	-16	·	·	3	2	8	i	-16
COC(=O)c1[nH]c2cc(OC)c(OC)cc2c1NC(=O)CN1C[C@H]2C[C@@H](C1)c1cccc(=O)n1C2	-7	·	·	-1	5	·	·	-3
Cc1cccc(-n2c(CNC(=O)c3ccccc3)nnc2SCC(=O)Nc2nccs2)c1	-7	2	1	0	5	-14	i	-17
CCN(CC)c1ccc(/C=C2\CCC(/C=C(\C#N)C(=O)Nc3ccccc3F)=C2N2CCOCC2)cc1	·	61*	1	69	62	1	i	-26	eIF4H inh retest=83*;PABP FP inh retest=47
Cc1cc(NC(=O)CSc2nc(=O)cc(N)n2-c2ccc(Cl)cc2)no1	-8	-9	5	0	7	11	i	-16
O=C(CSc1nnc(-c2n[nH]c3ccccc23)n1-c1ccccc1)Nc1ccccc1Cl	5	-1	3	-3	-6	·	i	-18
CC1(C(=O)NS(=O)(=O)c2cccc(Cl)c2)CCN1C(=O)c1ccccc1 (stereo unspecified)	·	·	·	1	4	4	·	-3
Cc1ccc(NC(=O)C(C)OC(=O)CCN=C2NS(=O)(=O)c3ccccc32)cc1 (stereo unspecified)	-10	·	·	0	-2	-15	i	34
CN(C(=O)COC(=O)c1ccc2c(c1)OCO2)c1c(N)n(Cc2ccccc2)c(=O)[nH]c1=O	6	·	·	-1	-3	-7	i	·
COCCOCCn1cnc2ccccc21	-13	2	-10	-8	-4	-27	i	-16
COc1ccc(CN(C)C(=O)c2cccc(Oc3ccccc3)c2)c(OC)c1OC	6	4	2	0	-10	40	i	11
Cc1ccc(-c2noc(CCC(=O)NCC3CCCO3)n2)cc1 (stereo unspecified)	-5	-5	-1	-1	3	-50	i	-2
O=C(CNc1ccc(F)cc1)N/N=C/c1c(O)ccc2ccccc12	35	6	-2	1	2	13	i	·
COC(=O)CCCNC(=O)c1ccc2nc(Cc3ccc(OC)cc3)oc2c1	-20	-6	-5	1	0	-17	i	2
COc1ccc(Nc2ccc([N+](=O)[O-])cn2)cc1	-7	-9	-8	1	-2	-42	i	19
O=C(c1cccc(C(F)(F)F)c1)N1CCC(O)(CS(=O)(=O)Cc2ccccc2)CC1	0	2	6	1	-2	-81	i	-6
Nc1ccc(Nc2ccccc2)c(S(=O)(=O)O)c1	-9	95*	69*	23	25	12	i	-9
CCOC(=O)c1ccc(N/C=C2\CCCCC2=O)cc1	7	2	14	2	-2	·	i	-29
COc1ccccc1OCc1ccc(C(=O)N2CCOCC2)o1	-7	4	-8	1	-2	-6	i	·
C/C(=N\NC(=O)C(O)(c1ccccc1)c1ccccc1)c1ccc(NC(=O)CCCC(=O)O)cc1	-3	-12	3	0	1	-8	i	3
O=C(CSc1nnc(C2CC2)n1Cc1ccco1)NCC(F)(F)F	3	10	7	2	5	3	i	-8
CS(=O)(=O)/C(C#N)=C/c1c(-c2ccccc2)nc2n1CCS2	-15	-2	-4	1	0	0	i	-24
CCc1ccc(CN2CCCC(CNC(=O)c3cccc(OC)c3OC)C2)cc1 (stereo unspecified)	-5	4	3	-2	-1	44	i	-9
O=C(Nc1cccc(C(F)(F)F)c1)c1cncs1	2	-5	6	2	-2	2	i	-4
Cc1ccc(C(C)C)c(OCC(=O)Nc2ccc3c(c2)nc(CN2CCCC2)n3C)c1	-2	-6	-12	4	-1	·	i	·
Fc1cccc(Cc2c(-c3cccc(Br)c3)nc3c(Cl)cc(C(F)(F)F)cn23)c1	·	·	·	2	2	-21	·	-4
CNc1ccc(Cl)cc1C(N)=O	-16	-6	63*	1	4	2	i	-12	eIF4H inh retest=46;PABP FP inh retest=89*
COC(=O)c1[nH]c2ccc(C)cc2c1NC(=O)C(C)N1CCN(C2CCCCC2)CC1 (stereo unspecified)	-10	8	8	6	5	·	i	-3
COc1ccccc1N1CCN(C(=O)C2CCCN(S(=O)(=O)c3ccc4c(c3)oc(=O)n4C)C2)CC1 (stereo unspecified)	-9	-9	-2	-4	-24	11	i	0
COc1ccc2nc(NC(=O)c3cccc(N4C(=O)CCC4=O)c3)sc2c1	13	·	·	3	5	·	·	1
COc1ccc(-c2csc(NC(=O)CSc3ccc(Br)cc3)n2)c(OC)c1	7	6	-7	-8	-8	1	i	·
COc1cc(OC)cc(C(=O)Nc2cccc(NC(=O)c3cc(OC)cc(OC)c3)n2)c1	3	·	·	0	-4	2	i	-3
More results
SMILES	CSC inhib	eIF4H inh	PABP FP inh	MT1-MMP act inh	MT1-MMP act inh RFP	Env fusion inh	Rce1 inh	UUG fidelity	others
CC(=O)c1cnc(-c2ccccc2)s1	·	3	-17	-1	0	-3	i	·
O=C(CN1C(=O)c2ccccc2C1=O)N1CCN(c2nnc(-c3ccccc3)c3ccccc23)CC1	-10	0	8	-1	-1	-30	i	-7
COc1ccccc1C1=CN(Cc2ccccc2)CCC1=O	·	·	·	1	3	3	·	10
CCOC(=O)C(C(=O)Nc1nc2ccccc2s1)C1CCCCC1 (stereo unspecified)	16	-7	-11	-2	-4	-46	i	·
COc1ccc([C@H]2CC(=O)C=C(c3ccnc4ccc(Cl)cc34)C2)cc1	33	·	·	20	-27	-4	·	-11
O=C(c1ccco1)N1CCN(c2ncnc3c(-c4ccccc4)nsc23)CC1	4	-8	-5	4	-7	-260	i	-2
Cc1cc(NCCN2CCOCC2)c2ccc3ccccc3c2n1	-1	-9	24	9	4	-64	i	·
COc1ccc(OC2C(=O)N(Cc3ccc(F)cc3)C2c2cc(OC)c(OC)c(OC)c2)cc1 (stereo unspecified)	-3	6	25	-2	4	-70	i	·
O=C(NCCCN1CCN(Cc2ccccc2)CC1)c1nnc(Cc2c(F)cccc2Cl)o1	-4	7	8	7	3	21	·	-9
CCC(=O)Nc1nc(=S)ss1	-6	-7	44	-1	2	·	i	·
COc1ccc(-c2ncc(CN3CCC(CO)(Cc4cccc(OC)c4)CC3)cn2)cc1	-14	1	-22	0	-8	17	i	·
CCOC(=O)c1c(S(=O)(=O)NCC(=O)Nc2cc(C)ccc2OC)c(C)n(C)c1C	-6	·	·	-2	3	3	i	-10
COc1cccc(OC)c1OCC(O)CN1CCN(c2ccc(F)cc2)CC1 (stereo unspecified)	2	-9	-5	-2	1	-11	i	-3
CCN(CC)C(=S)SCC(=O)c1ccc(F)cc1	8	2	1	3	-1	-170	i	-3
O=C(CN(Cc1cccs1)C(=O)CSc1nnc(COc2ccccc2)o1)NC1CCCCC1	13	10	-5	-5	-8	·	i	7
C[C@@H]([C@H](O)c1ccccc1)N(C)C(=S)Nc1ccccc1	3	-3	-1	6	6	10	i	-18
O=C(COc1ccccc1F)NNC(=O)c1ccc(N2CCCCC2)c([N+](=O)[O-])c1	4	6	-14	2	3	36	i	·
O=C(NCc1cccc(C(F)(F)F)c1)c1ccc2c(c1)OCCO2	25	6	-1	1	2	8	i	9
CS(=O)(=O)N1CCN(c2ccnc3cc(Cl)ccc23)CC1	7	-7	-8	-1	2	8	i	-13
CNc1ccc(-c2cccc(CO)c2)cn1	·	·	·	1	6	-10	·	-14
COc1ccc(C(C)(C)C)cc1NC(=O)C1CC(=O)N(C2CCCC2)C1 (stereo unspecified)	-25	·	·	2	2	18	·	·

A draw from above in order of heavy-atom count, smallest number first.
SMILES	CSC inhib	eIF4H inh	PABP FP inh	MT1-MMP act inh	MT1-MMP act inh RFP	Env fusion inh	Rce1 inh	UUG fidelity	others
O=C(NCc1cccc(C(F)(F)F)c1)c1ccc2c(c1)OCCO2	25	6	-1	1	2	8	i	9
COc1ccc(C(C)(C)C)cc1NC(=O)C1CC(=O)N(C2CCCC2)C1 (stereo unspecified)	-25	·	·	2	2	18	·	·
O=C(CN(Cc1cccs1)C(=O)CSc1nnc(COc2ccccc2)o1)NC1CCCCC1	13	10	-5	-5	-8	·	i	7
